Bioassay records from PubChem.
VDR inhibitor – vitamin D3 receptor (human) inhibition; AID 504847; Potency, µM, for inactives: max response, negative = inhibition, actives largely listed as inhibitors; VDR-SRC2-3 peptide fluorescence polarization, 2 h; 400,000 tested, 0.93% active; P11473; active = well fitted inhibition curve with a large enough effect; inconclusive = small, poorly fitted or top-dose-only effect, or another doubt; inactive = no such curve, though single readings can be large or run the other way; note: series mostly up to about 120 µM
Target sequence (P11473 whole entry, looked up): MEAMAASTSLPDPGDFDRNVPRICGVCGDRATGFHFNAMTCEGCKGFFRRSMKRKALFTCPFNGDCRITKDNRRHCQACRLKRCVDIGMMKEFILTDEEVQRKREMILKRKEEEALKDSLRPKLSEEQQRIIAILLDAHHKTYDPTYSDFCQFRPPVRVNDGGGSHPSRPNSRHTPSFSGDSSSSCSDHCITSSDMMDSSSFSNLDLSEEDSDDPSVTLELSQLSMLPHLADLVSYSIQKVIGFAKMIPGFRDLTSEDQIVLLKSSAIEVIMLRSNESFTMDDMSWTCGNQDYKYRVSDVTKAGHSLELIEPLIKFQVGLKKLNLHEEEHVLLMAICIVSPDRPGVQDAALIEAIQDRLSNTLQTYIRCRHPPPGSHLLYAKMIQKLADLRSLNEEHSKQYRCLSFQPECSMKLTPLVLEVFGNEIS
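Compounds are added to VDR with labelled SRC2-3 coactivator peptide and held 2 h at room temperature. Inhibition of the VDR–peptide interaction is then read as a change in fluorescence polarization.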
An asterisk follows results filed as active; ? = inconclusive; & = joins results of further samples; [ ] = dose if it differs, or a comment. % is set by controls: 0 for no effect and ±100 for the full control effect; potency is the fitted concentration of half-maximal effect. A portion of the library, so the mix of outcomes need not match the whole.

smiles | VDR inhibitor
COc1cccc(CNc2nc3ccccc3n2CCN2CCCCC2)c1 | 7%
Cn1nc(C(F)(F)F)c(C(=O)Nc2ccc(F)cc2F)c1Sc1cccc(C(F)(F)F)c1 | -10%
CCCn1c(=O)c2[nH]c(-c3ccc(OCC(=O)NCCN)cc3)nc2n(CCC)c1=O | 10%
COc1cccc(CN2CCN(Cc3cc(OC)c(OC)cc3OC)CC2)c1 | 2%
COc1ccc(CC(=O)Nc2ccccc2C(C)=O)cc1S(=O)(=O)N1CCOCC1 | 15%
CC(=O)C1=C(C)NC(SCC(=O)c2ccccc2)=C(C#N)C1CC(C)C (stereo not drawn) | -15%
CN(Cc1ccccc1)C(=O)COC(=O)Cc1ccc(Cl)cc1 | 1%
O=C(CN1CCN(c2ccccn2)CC1)NC(=O)NC1CCCCC1 | 7%
CCOc1ccc(NC(=O)N(c2ccccc2)c2ccccc2)cc1 | -2%
Cc1cccc2nc(CSc3ncccc3C(=O)O)cn12 | -15%
CCOc1ccc(Nc2cc(C)nc3c(C)cccc23)cc1 | -8%
Cc1ccc(-c2cc(NC(=O)c3cccc(C)c3)on2)cc1 | -3%
O=c1c2ccccc2nc(COc2ccccc2)n1/N=C/c1ccco1 | -3%
O=C(O)CCc1nc(-c2cccs2)no1 | 14%
O=C(COC(=O)[C@@H]1CC(O)CN1S(=O)(=O)c1ccc([N+](=O)[O-])cc1)NC12CC3CC(CC(C3)C1)C2 (stereo partly drawn) | -26%

Structures listed so far with an aryl methoxy group (3):
smiles | VDR inhibitor
COc1cccc(CNc2nc3ccccc3n2CCN2CCCCC2)c1 | 7%
COc1cccc(CN2CCN(Cc3cc(OC)c(OC)cc3OC)CC2)c1 | 2%
COc1ccc(CC(=O)Nc2ccccc2C(C)=O)cc1S(=O)(=O)N1CCOCC1 | 15%

The results go on:
smiles | VDR inhibitor
O=C(Nc1ccc(F)cc1F)C1CCN(S(=O)(=O)c2cccnc2)CC1 | 9%
C[C@]12C=CC(=O)C=C1CC[C@@H]1[C@@H]2[C@@H](O)C[C@@]2(C)[C@H]1CC[C@]2(O)C(=O)COC(=O)CCC(=O)O | 10%&-15%
Cc1occc1C(=O)/C(C#N)=C/c1ccc(O)c(Br)c1 | ?
O=C(NC1CCCCC1)C1COc2ccccc2O1 (stereo not drawn) | 5%
CCOCC(=O)Nc1cc(C(=O)OC)ccc1C(=O)OC | 6%
COc1ccc(NC(=O)Nc2cc3oc4ccccc4c3cc2OC)cc1 | -5%
Cc1nc2ccccc2nc1OCC(=O)Nc1ccc(F)cc1 | -12%
CCCc1c(C(=O)Nc2cc(C)on2)cnn1-c1ccccc1 | -8%
CCOc1ccc(Sc2cc(C(=O)NCc3ccc(F)cc3)c3ccccc3n2)cc1 | -6%
COC(=O)c1c(NC(=O)C(=O)N2CCCCC2)sc2c1CC(C)(C)OC2 | 21%
O=C(Oc1ccc2ccc(=O)oc2c1)c1cccs1 | -13%
CC(=O)N1CCC2(CC1)C(C#N)=C(N)OC1=C2C(=O)CC(C)(C)C1 | 6%
O=C(c1ccc2c(=O)n(Cc3ccccc3)c(=S)[nH]c2c1)N1CCCC1 | 3%
Cc1nn(CCO)c(N)c1C1(O)C(=O)Nc2c(Cl)cc(Cl)cc21 (stereo not drawn) | 21%
COC(=O)C1CCN(C(=O)/C=C/c2ccc3c(c2)OCO3)CC1 | ?
COc1ccc2c(c1)-c1nc(NC(=O)c3ccc(OC)c(Br)c3)sc1CC2 | -6%
CCc1cccc(C)c1NC(=O)C1CCN(S(=O)(=O)Cc2ccccc2)CC1 | 14%
O=C1C(Nc2ccccc2)=C/C(=N/S(=O)(=O)c2cccs2)c2ccccc21 | -14%
COc1ccc(C(=O)CSc2nnc(-c3ccc(S(=O)(=O)N4CCOCC4)cc3)o2)cc1 | -1%
CCn1c(=O)c2cc(C(=O)NCCCN(C)Cc3ccccc3)sc2c2ccccc21 | -10%
O=C(C[C@H]1C[C@H](C(=O)N2CCOCC2)[C@@]2(CCC3CCCC3)c3[nH]c4ccc(Cl)cc4c3CCN2C1=O)NCc1ccco1 | -16%
Cc1nc2ccccc2c(=O)n1NC(=O)C1CCC(C(C)(C)C)CC1 (stereo not drawn) | -7%
CC1=NN(C(=O)c2ccc(Br)cc2)C(O)(c2ccccc2)C1 (stereo not drawn) | -13%
CC(=O)Nc1ccc(NC(=O)C/C(C)=N/NC(=O)C(=O)Nc2ccc(C)c(Cl)c2)cc1 | -8%
Cc1ccc(CNC(=O)C2C3C=CC4(CN(Cc5cccnc5)C(=O)C24)O3)cc1 (stereo not drawn) | -9%
Cc1cc(NC(=O)/C=C/c2ccco2)ccc1NC(=O)c1ccccc1 | 14%
O=C(CCSCc1ccc(Cl)cc1)NCCC1=CCCCC1 | -25%
COc1ccc(/C=N/NC(=O)c2ccc3c(c2)OCO3)c(C(=O)O)c1OC | -29%
Cc1ccc(CSc2nc3ccccc3cc2C=O)cc1 | -10%
CNC(=S)NNC(=O)Cc1ccc(OC)c(OC)c1 | -5%
CN(C)Cc1ccccc1-c1cc(-n2ccnc2)ncn1 | -27%
Cc1ccc(C(=O)N2CCCc3ccccc32)c(F)c1F | 11%
COc1ccccc1C(=O)Nc1ccc(-c2nnc(SCC(=O)O)n2C)cc1 | -11%
COC(=O)[C@@H]1C(c2ccccc2)(c2ccccc2)[C@@]1(C)C(=O)OC | -25%
Cc1csc2nc3cc(C(N)=O)ccc3c(=O)n12 | 10%
Cc1ccc(NC(=O)COC(=O)C2CCC(=O)N2)c(S(=O)(=O)N2CCOCC2)c1 (stereo not drawn) | 8%
Cc1cn2nc(N)c3ccccc3c2n1 | 10%
Cc1cc(C(=O)N/N=C/c2cc([N+](=O)[O-])cc(C)c2O)n[nH]1 | -8%
CCC(CC)C(=O)Nc1c(C)n(C)n(-c2ccccc2)c1=O | -11%
Cc1ccc(NC(=O)CC2SC(=O)N(c3ccccc3)C2=O)cc1 (stereo not drawn) | 28µM*
COc1ccc2cc1Oc1ccc(cc1)C[C@H]1c3c(cc(OC)c4c3Oc3c(ccc5c3[C@H](C2)N(C)CC5)O4)CCN1C | -2%
CCC(C)(C)C1CCC(=NNC(=O)c2ccc(Br)o2)CC1 (stereo not drawn) | -9%
CCCCOC(=O)Nc1ccc(C)c(Cl)c1 | -3%
O=C(c1cc(F)ccc1F)C1CCCN(C(=O)CSc2ccccn2)C1 (stereo not drawn) | 26%
N#CC1(c2ccccc2)CCC(=NNS(=O)(=O)c2ccccc2)CC1 (stereo not drawn) | ?
O=C(COC(=O)c1ccc(Cl)c(S(=O)(=O)N2CCCC2)c1)NCc1cccs1 | 9%
CCc1c(C)sc2c1CCN(C(=O)Nc1cc(C)cc(C)c1)C2c1ccccc1 (stereo not drawn) | 13%
C[C@H]1CN([C@@H](C)CO)C(=O)c2cccc(NC(=O)c3ccc(-c4nccs4)cc3)c2O[C@@H]1CN(C)C(=O)Nc1cccc2ccccc12 | -1%
O=C(Nc1ccccc1C(=O)NCCCN1CCOCC1)c1ccc(F)cc1 | 25%
Cc1nc(SCCOc2ccc(Cl)cc2)[nH]c(=O)c1Cc1ccccc1 | 19%
COc1cccc(CNC(=O)c2cccc(NC(=O)c3nsc4ccccc34)c2)c1 | 4%
COc1ccc2c(C)cc(SCn3nnc4ccccc4c3=O)nc2c1 | -13%
O=C(NCc1cccnc1)c1cnc2ccccc2n1 | 11%
COc1ccc(NC(=O)CN2C(=O)COc3ccc(S(=O)(=O)N4CCCCC4)cc32)cc1Cl | 11%
Cc1cc(C)n(-c2nc3c(c(=O)[nH]c(=O)n3C)n2CC(O)COc2ccc(Cl)cc2Cl)n1 (stereo not drawn) | 38%[activator]
S=C(Nc1ccccc1Oc1ccccc1)NC1CCCC1 | 13%
CCOC(=O)c1ccc(NC(=S)NN2CCN(C)CC2)cc1 | 2%
O=C(C1CCCCC1)N1CCC(c2nc3c(nnn3Cc3ccccc3Cl)c(=O)[nH]2)CC1 | -15%
COc1ccc(S(=O)(=O)N(CC(C)C)C2CCS(=O)(=O)C2)cc1OC (stereo not drawn) | -5%
CCC(=O)N=c1sc2c(C)cc(C)cc2n1CC(=O)OC | -1%

Additional structures:
smiles | VDR inhibitor
Cc1cc(Br)cc(C)c1NC(=O)c1sc2ncn(Cc3cccc(F)c3)c(=O)c2c1C | 23%
COc1ccc(N2C(=O)CC(N3CCN(C(=O)c4ccco4)CC3)C2=O)cc1 (stereo not drawn) | 5%
CC(C)(C)C1CCc2c(C(=O)NNC(=O)CCC(=O)O)csc2C1 (stereo not drawn) | -29%
CCOC(=O)c1ccc(NC(=O)CCc2c(C)nc3nc[nH]n3c2=O)cc1 | -11%
CNc1oc(-c2cccs2)nc1S(=O)(=O)c1ccccc1 | ?
Cc1ccc(NC(=O)C2CC=CCC2C(=O)N2CCCCC2)cc1 (stereo not drawn) | 0%
CC(C)(C)NS(=O)(=O)c1ccc(NC(=O)NC2CCCCC2)cc1 | 3%
O=[N+]([O-])c1cc(Cl)ccc1N1CCCC1 | 4%
CS(=O)(=O)c1ccccc1C(=O)NC1CCCc2ccccc21 (stereo not drawn) | -8%
CCOC(=O)c1[nH]c2ccc(F)cc2c1NC(=O)Nc1ccccc1OC | -4%
O=C(NCCCN1CCOCC1)c1cc(-c2ccc(Cl)c(Cl)c2)on1 | 9%
CC(C)Oc1ccc(C(=O)Nc2cc(=O)n(C)c(=O)n2C)cc1 | -18%
CCC(C(=O)O/N=C(\N)c1ccc(Cl)cc1)c1ccccc1 (stereo not drawn) | 18%
O=C1CN(C(=O)c2ccccc2F)C(c2ccccc2)c2cc(Cl)ccc2N1 (stereo not drawn) | -21%
C/C(=N\NC(=O)c1nnn(-c2nonc2N)c1C(C)C)c1ccncc1 | 8%

Structural class, the entries above containing a cyano group (4)
smiles | VDR inhibitor
CC(=O)C1=C(C)NC(SCC(=O)c2ccccc2)=C(C#N)C1CC(C)C (stereo not drawn) | -15%
Cc1occc1C(=O)/C(C#N)=C/c1ccc(O)c(Br)c1 | ?
CC(=O)N1CCC2(CC1)C(C#N)=C(N)OC1=C2C(=O)CC(C)(C)C1 | 6%
N#CC1(c2ccccc2)CCC(=NNS(=O)(=O)c2ccccc2)CC1 (stereo not drawn) | ?

The listing continues:
smiles | VDR inhibitor
O=c1c(-c2cccs2)nc2cnc(N3CCOCC3)nc2n1Cc1ccc(F)cc1 | 3%
O=C(O)CN1CCN(Cc2cccc(Cl)c2)C1=O | 0%
Cc1ccc2cc3c(NC(=O)CC(C)C)nn(C)c3nc2c1 | 11%
CCn1c(=O)c(C(=O)NNC(=O)c2ccccc2)c(O)c2ccccc21 | 16%
Cc1cc(SCC(=O)NCc2ccccc2Cl)nc(=O)[nH]1 | 18%
CCCCn1c(-c2csc3c2CCC(C)C3)n[nH]c1=S (stereo not drawn) | 2%
Cc1cc(C)c(OCCOCCn2c(-c3ccc(Cl)cc3)nc3ccccc3c2=O)c(C)c1 | 1%
CN1CCN(NC(=O)C23CC4CC(CC(C4)C2)C3)CC1 | 5%
COc1cccc(NC(=S)N/N=C2/CCCCc3ccccc32)c1 | -5%
COC(=O)NCN1C(=O)C2C3C=CC(C3)C2C1=O (stereo not drawn) | -5%
C=CCNC(=O)CN1C(=O)NC(C)(c2ccc(OC)cc2)C1=O (stereo not drawn) | -5%
CC(=O)OCCN1C(=O)c2cccnc2C1=O | 1%
CC(C)C(NS(=O)(=O)c1ccc2c(c1)oc(=O)n2C)C(=O)N1CCN(C2CCCCC2)CC1 (stereo not drawn) | -8%
CCOC(=O)N/N=C\c1ccc(C)s1 | 6%
CCCCn1c(=O)c(CCC(=O)OCC(=O)Nc2cc(Cl)ccc2OC)nc2ccccc21 | -26%
COc1ccc(OCC(=O)Nc2ccccc2OC)cc1 | 8%
COc1cc(NS(=O)(=O)c2ccc(NC(=O)COc3ccc(Cl)cc3Cl)cc2)nc(OC)n1 | -1%
CC1CCCCC1NC(=O)c1cn(C)c2ccc(S(=O)(=O)N3CCOCC3)cc2c1=O (stereo not drawn) | -5%
O=C(CN1CCN(S(=O)(=O)c2cccs2)CC1)NCC1CCCCC1 | -6%
Cc1nn(C)c(C(=O)N/N=C/c2cccnc2)c1Cl | 5%
CCOC(=O)C1=C(C)NC(C)=C(C(=O)OCC)C1C(=O)OCC(=O)N1CCOCC1 | -13%
O=C(CCN1CCN(c2ccccc2)CC1)Nc1cccc(Br)c1 | 15%
COc1cccc(Nc2nc(NCCO)c3ccccc3n2)c1 | 2%
CCOn1c(=O)c(-c2ccc(OC)cc2)[n+]([O-])c2ccccc21 | 10%
COc1cc(/C=C/C(=O)NC(C)C)ccc1OCc1ccccc1 | 4%
CN(C(=O)CSCC(=O)O)C1CCCCC1 | 4%
COC(=O)Nc1ccc(S(=O)(=O)NC2CCCCC2)cc1 | 7%
O=C(O)/C=C/C(=O)Nc1cccc2c1-c1ccccc1C2=O | 1%
CCC(C(=O)Nc1ccc(C)c(Cl)c1)n1c(=O)c(-c2ccccc2NC(C)=O)nc2ccccc21 (stereo not drawn) | 5%
CCOc1ccc(NC(=S)c2ccncc2)cc1 | -10%
Cc1ccc(C)c(NC(=O)CNC(=O)N2CC(=O)Nc3ccccc32)c1 | 3%
CCCCn1c(N)c(N(CCOC)C(=O)c2ccc(N3CCCC3)c([N+](=O)[O-])c2)c(=O)[nH]c1=O | -6%
Cc1cccc(C(=O)Nc2ccccc2SCC(=O)Nc2ccc(C)c(Cl)c2)c1 | -20%
